# UUG fidelity: yeast start codon fidelity modulation. S. cerevisiae UUG-firefly luciferase reporter, luminescence/redox ratio. activity score, % at 18.7 µM. hit rate 0.13% among 350,000. AID 602363;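 active means replicate mean at a twofold rise or more, about +100% in these data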;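 further: firefly luciferase made from a UUG start codon reports start codon fidelity; reporter light over untreated wells divided by growth signal over untreated wells; some hits fall short of that in this replicate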
# eIF4H FP inh: inhibitors of RNA binding by human eIF4H; Q15056; eIF4H fluorescence polarization binding assay; inhibition, % at 35 µM; hit rate 0.94% among 290,000; AID 2012;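 active means 50% or more with normal probe brightness, or confirmed in later tests; about a fifth of its hits are not listed in these tables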;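 further: calls also rest on retests at 20 µM and on dose response follow-up; 0% = protein and probe with vehicle and 100% = probe without protein; strong numbers were not always called active; many hits fall short of the cut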
# MT1-MMP act inh: MT1-MMP (human) activation inhibition | P50281 | HT1080 RFP-PRO-GFP cells, GFP/RFP ratio fluorescence, overnight; percent of plate control window, DMSO zero | GFP/RFP ratio change, % at 20 µM | hit rate 0.061% among 360,000 | AID 651647;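 active means GFP/RFP ratio change of at least 30% with cell ATP level not reduced by more than half and red fluorescence within 50% of control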; further: strong numbers were not always called active
#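 Assay system: HT1080 cells carrying an RFP-PRO-GFP reporter | Dosing: Single dose of 20 µM compound, 1% DMSO final | Incubation: Cells overnight before dosing, compound overnight, 37 °C, 5% CO2 | Evaluation: GFP/RFP fluorescence ratio | Control set: DMSO and RFP-L50D-GFP cell wells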
# HIV Env fusion: inhibitors of HIV Env-mediated cell fusion; AID 651610; inhibition, % at 12.3 µM; hit rate 1.1% among 360,000; HeLa-JRFL Env/CEM21 cell fusion, luciferase;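 active means mean replicate inhibition score of at least 50 and every replicate individually at or above 50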;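 further: 0% = plate neutral controls and 100% = maraviroc near 300 nM; one replicate is shown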
# Rce1 inhib: blocks yeast Ras-converting enzyme | Q03530 | yeast membranes, quenched prenylated peptide cleavage fluorescence | calls only | hit rate 0.27% among 290,000 | AID 2563;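 active means fall in fluorescence gain of 50% or more versus controls, with final raw signal at or below 3038400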;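 further: plate controls were neutral control wells for no effect and wells lacking membranes for full effect; tested at 10 µM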
# Target sequence (Q03530 whole entry, looked up): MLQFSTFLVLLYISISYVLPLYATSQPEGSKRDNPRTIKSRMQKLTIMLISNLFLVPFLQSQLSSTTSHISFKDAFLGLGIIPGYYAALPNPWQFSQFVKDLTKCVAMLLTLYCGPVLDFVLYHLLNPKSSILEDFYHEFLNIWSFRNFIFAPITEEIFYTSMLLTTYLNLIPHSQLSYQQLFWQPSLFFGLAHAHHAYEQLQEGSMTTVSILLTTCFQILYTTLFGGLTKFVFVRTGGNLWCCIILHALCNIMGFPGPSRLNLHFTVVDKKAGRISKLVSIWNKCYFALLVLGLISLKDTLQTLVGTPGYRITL
# PABP polyA inh: blocks human PABP binding to poly(A) RNA; inhibition, % at 35 µM; fluorescence polarization; P11940; hit rate 1% among 290,000;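 active means 50% or more with normal probe brightness, or confirmed in later tests; about a fifth of its hits are not listed in these tables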;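 further: calls also rest on retests at 20 µM and on dose response follow-up; controls were probe without protein and protein plus probe with vehicle; some compounds called inactive have numbers as strong as hits; many hits fall short of the cut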
# CSC inhib: blocks cancer stem cells. AID 2717. inhibition, % at 7.5 µM. cancer stem cell-like cells viability, luminescence. hit rate 1.1% among 300,000;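 active means mean at 75% or more and at least half the replicates too; tested in HMLE shEcad cells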;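 further: 0% = median of negative and 100% = median of positive control wells; the first replicate is given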
# MT1-MMP act inh RFP: further read-out of MT1-MMP act inh, marked with its call; RFP signal change, %; measured here: RFP expression control read;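 0 = vehicle wells; hits needed this value within 50% of zero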
# An asterisk follows results filed as active; i = inactive; nt = not tested or not shown.
Structure	UUG fidelity	eIF4H FP inh	MT1-MMP act inh	MT1-MMP act inh RFP	HIV Env fusion	Rce1 inhib	PABP polyA inh	CSC inhib
CCC(C)[C@H](NC(=O)OC(C)(C)C)C(=O)N/N=C/c1ccc2nccnc2c1 (stereo partly drawn)	-8	2	5	6	-27	i	-7	-4
COc1ccc(-n2c(COc3ccc(C)cc3)n[nH]c2=S)cc1	-11	3	-2	0	7	i	12	1
COc1ccc(Nc2cc(C(=O)NC3CCCC3)c3ccccc3n2)c(OC)c1	-17	-11	5	-8	4	i	1	1
CCN1CCN(C(=S)NCC(C)C)CC1	nt	16	0	2	nt	i	-3	-10
Cc1ccc2ccc(C)[n+](CCCS(=O)(=O)[O-])c2c1	nt	8	-3	2	16	i	-2	2
Cc1cc(Cl)ccc1Oc1nc(-c2ccc(F)cc2)ccc1C#N	-24	-9	-3	-3	-3	i	0	40
COc1ccccc1NNC(=O)c1cccnc1Oc1ccccc1	28	-5	5	4	-124	i	-4	-10
CC(C)Cc1nc2ccccc2[nH]1	-5	-6	-1	-1	5	i	2	-9
COc1cccc(CNC(=S)Nc2ccc(Cl)cc2C)c1	-29	3	-2	-8	0	i	-2	-10
Cc1ccc(Cl)cc1N1CCN(C(=O)C2CCCN(S(=O)(=O)c3cnc[nH]3)C2)CC1 (stereo not drawn)	-17	-8	8	-8	-38	i	-16	-7
Nn1c(SCC(=O)Nc2cccc(C(F)(F)F)c2)nncc1=O	-27	20	0	4	-4	i	2	-2
CCOc1ccc(CN(C)C(=O)[C@H](Cc2ccccc2)NC(=O)OCc2ccccc2)cc1OC	30	-1	-6	-18	15	i	8	nt

# Fetched by compound from above:
Structure	UUG fidelity	eIF4H FP inh	MT1-MMP act inh	MT1-MMP act inh RFP	HIV Env fusion	Rce1 inhib	PABP polyA inh	CSC inhib
COc1ccc(-n2c(COc3ccc(C)cc3)n[nH]c2=S)cc1	-11	3	-2	0	7	i	12	1
COc1ccccc1NNC(=O)c1cccnc1Oc1ccccc1	28	-5	5	4	-124	i	-4	-10
Cc1ccc2ccc(C)[n+](CCCS(=O)(=O)[O-])c2c1	nt	8	-3	2	16	i	-2	2
COc1cccc(CNC(=S)Nc2ccc(Cl)cc2C)c1	-29	3	-2	-8	0	i	-2	-10

# One compound at a time (already shown).
# Record of CCOc1ccc(CN(C)C(=O)[C@H](Cc2ccccc2)NC(=O)OCc2ccccc2)cc1OC = UUG fidelity = 30; eIF4H FP inh = -1; MT1-MMP act inh = -6; MT1-MMP act inh RFP = -18; HIV Env fusion = 15; Rce1 inhib = i; PABP polyA inh = 8; CSC inhib = nt
# Record of CCC(C)[C@H](NC(=O)OC(C)(C)C)C(=O)N/N=C/c1ccc2nccnc2c1 (stereo partly drawn) = UUG fidelity = -8; eIF4H FP inh = 2; MT1-MMP act inh = 5; MT1-MMP act inh RFP = 6; HIV Env fusion = -27; Rce1 inhib = i; PABP polyA inh = -7; CSC inhib = -4

# Ordered by the number under UUG fidelity (smallest number first): 5 from the list above
SMILES | UUG fidelity | MT1-MMP act inh | MT1-MMP act inh RFP | HIV Env fusion | Rce1 inhib
Nn1c(SCC(=O)Nc2cccc(C(F)(F)F)c2)nncc1=O | -27 | 0 | 4 | -4 | i
Cc1cc(Cl)ccc1Oc1nc(-c2ccc(F)cc2)ccc1C#N | -24 | -3 | -3 | -3 | i
CCC(C)[C@H](NC(=O)OC(C)(C)C)C(=O)N/N=C/c1ccc2nccnc2c1 (stereo partly drawn) | -8 | 5 | 6 | -27 | i
CC(C)Cc1nc2ccccc2[nH]1 | -5 | -1 | -1 | 5 | i
CCOc1ccc(CN(C)C(=O)[C@H](Cc2ccccc2)NC(=O)OCc2ccccc2)cc1OC | 30 | -6 | -18 | 15 | i

# New compounds follow.
Structure	UUG fidelity	eIF4H FP inh	MT1-MMP act inh	MT1-MMP act inh RFP	HIV Env fusion	Rce1 inhib	PABP polyA inh	CSC inhib
COCCN(C(=O)CCC(=O)Nc1cc(C)on1)C(C(=O)NC1CCCC1)c1ccc(C(C)C)cc1 (stereo not drawn)	14	-14	0	1	5	i	-6	nt
COc1ccc(NC(=S)N(CCN(C)C)C(C)c2ccco2)cc1Cl (stereo not drawn)	-21	-8	1	5	-8	i	-10	15
O=C(O)c1cccc2c1C(=O)c1ccc(-c3ccc(Cl)c(C(F)(F)F)c3)cc1S2(=O)=O	-13	nt	-2	-2	nt	nt	nt	6
COc1cccc(C(C)NC(=O)Nc2cc(Cl)ccc2OC)c1 (stereo not drawn)	-17	4	2	0	0	i	10	7
Cc1ccc2nc(C)cc(NCCO)c2c1	-10	-5	1	2	nt	i	6	-10
O=C(Nc1ccc(Cl)cc1)N1CCC(c2nc(-c3ccccc3Cl)no2)CC1	-11	6	-3	-24	53	i	0	-7
O=c1[nH]c(CN2CCN(c3ccccn3)CC2)nc2c(Br)cc(Br)cc12	-7	-9	3	0	8	i	-6	81*
CN(C(=O)COC(=O)c1ccccc1C(=O)N1CCN(c2ccccc2)CC1)c1ccccc1	-7	40	-18	-2	-8	i	-9	-14
Cc1ccccc1-n1cc(-c2ccc(Br)cc2)nc1SCC(N)=O	4	-11	2	-2	9	i	2	-7
CC(=O)OC1(C(C)=O)CCC2C3CC(Cl)C4=CC(=O)CCC4(C)C3CCC21C (stereo not drawn)	17	nt	-5	3	-165	nt	nt	nt

# Screens: PubChem, several laboratories

# This is a subset; rates above refer to the full screens.
